# Screening results deposited in PubChem by several laboratories.
# eIF4H inh: inhibitors of RNA binding by human eIF4H. inhibition, % at 35 µM. hit rate 0.94% among 290,000. eIF4H fluorescence polarization binding assay. Q15056;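 active = 50% or more with normal probe brightness, or confirmed in later tests; inconclusive = above 50% with abnormal brightness, or retests that disagree; inactive = below 50% or failed in later tests; about a fifth of its hits are not listed in these tables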;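 also: calls also rest on retests at 20 µM and on dose response follow-up; 0% = protein and probe with vehicle and 100% = probe without protein; strong numbers were not always called active; many hits fall short of the cut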
# Yeast UUG start: modulators of start codon recognition fidelity in yeast; S. cerevisiae UUG-firefly luciferase reporter, luminescence/redox ratio; activity score, % at 18.7 µM; hit rate 0.13% among 350,000;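 active = replicate mean at a twofold rise or more, about +100% in these data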;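 also: firefly luciferase made from a UUG start codon reports start codon fidelity; reporter light over untreated wells divided by growth signal over untreated wells; some hits fall short of that in this replicate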
# PABP FP inh: blocks human PABP binding to poly(A) RNA; P11940; fluorescence polarization; inhibition, % at 35 µM; hit rate 1% among 290,000; AID 2014;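 active = 50% or more with normal probe brightness, or confirmed in later tests; inconclusive = above 50% with abnormal brightness, or retests that disagree; inactive = below 50% or failed in later tests; about a fifth of its hits are not listed in these tables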;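 also: calls also rest on retests at 20 µM and on dose response follow-up; controls were probe without protein and protein plus probe with vehicle; some compounds called inactive have numbers as strong as hits; many hits fall short of the cut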
# MT1-MMP act inh: MT1-MMP (human) activation inhibition. P50281. HT1080 RFP-PRO-GFP cells, GFP/RFP ratio fluorescence, overnight; percent of plate control window, DMSO zero. GFP/RFP ratio change, % at 20 µM. hit rate 0.061% among 360,000;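 active = GFP/RFP ratio change of at least 30% with cell ATP level not reduced by more than half and red fluorescence within 50% of control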; also: strong numbers were not always called active
#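 Assay system: HT1080 RFP-PRO-GFP cells | Dosing: 20 µM single dose, 1% DMSO | Incubation: Cells overnight before dosing, compound overnight, 37 °C, 5% CO2 | Evaluation: GFP/RFP fluorescence ratio | Control set: DMSO-only wells and HT1080 RFP-L50D-GFP cell wells as references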
# Rce1 inh: inhibitors of yeast Ras-converting enzyme; Q03530; yeast membranes, quenched prenylated peptide cleavage fluorescence; calls only; hit rate 0.27% among 290,000;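 active = fall in fluorescence gain of 50% or more versus controls, with final raw signal at or below 3038400; inconclusive = same 50% fall but final raw signal above 3038400; inactive = fall in fluorescence gain under 50%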;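 also: plate controls were neutral control wells for no effect and wells lacking membranes for full effect; tested at 10 µM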
# Target sequence (Q03530 whole entry, looked up): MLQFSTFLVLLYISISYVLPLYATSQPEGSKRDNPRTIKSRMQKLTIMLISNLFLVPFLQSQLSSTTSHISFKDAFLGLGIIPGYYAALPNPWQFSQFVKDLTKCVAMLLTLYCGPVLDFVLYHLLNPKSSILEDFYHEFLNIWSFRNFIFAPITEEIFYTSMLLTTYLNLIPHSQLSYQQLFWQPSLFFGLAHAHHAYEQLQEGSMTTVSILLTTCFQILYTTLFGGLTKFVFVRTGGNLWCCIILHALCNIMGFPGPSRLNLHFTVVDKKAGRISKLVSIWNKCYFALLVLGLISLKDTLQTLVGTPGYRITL
# HIV Env fusion: blocks HIV Env-driven cell-cell fusion | hit rate 1.1% among 360,000 | inhibition, % at 12.3 µM | AID 651610 | HeLa-JRFL Env/CEM21 cell fusion, luciferase;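 active = mean replicate inhibition score of at least 50 and every replicate individually at or above 50; inconclusive = only one of the two criteria met; inactive = mean below 50 and not all replicates reaching 50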;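 also: 0% = plate neutral controls and 100% = maraviroc near 300 nM; one replicate is shown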
# CSC inhib: blocks cancer stem cells; hit rate 1.1% among 300,000; cancer stem cell-like cells viability, luminescence; inhibition, % at 7.5 µM;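 active = mean at 75% or more and at least half the replicates too; inconclusive = mean and replicates disagree; tested in HMLE shEcad cells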;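 also: 0% = median of negative and 100% = median of positive control wells; the first replicate is given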
# MT1-MMP act inh RFP: recorded beside MT1-MMP act inh, whose call it bears; RFP signal change, %; measured here: RFP expression control read;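 0 = vehicle wells; hits needed this value within 50% of zero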
# Starred values were filed as active, the others as inactive; i = inactive; ? = inconclusive; / = no result given.
SMILES,eIF4H inh,Yeast UUG start,PABP FP inh,MT1-MMP act inh,MT1-MMP act inh RFP,Rce1 inh,HIV Env fusion,CSC inhib
O=C(/C=C/c1ccccc1)NCC(=O)N/N=C\c1cccnc1,-1,/,-2,6,7,i,-1,-11
CN(C)CCN(C(=O)CN1C(=O)c2ccccc2C1=O)c1nc2cc3c(cc2s1)OCO3,-6,-3,9,-3,-1,i,-7,-15
CCOc1ccc(Nc2cc(C)nc3nc(C)nn23)cc1,16,-9,4,0,4,i,-15,-14
c1ccc(CCNc2cc(-c3ccc4ccccc4c3)nc3ccnn23)nc1,/,-13,/,1,0,/,-5,/
COc1cc(C)ccc1OCC(=O)Nc1ccccc1N1CCOCC1,/,0,/,-3,-5,/,4,/
O=c1oc(-c2cccs2)nc2ccc(Br)cc12,2,-31,7,-5,1,i,1,-3
O=C1c2ccccc2NC(c2ccc(-c3ccc(Br)cc3)o2)N1O (centres undefined),14,1,4,-2,-10,i,/,103*
Cc1cc2nc(-c3cccnc3SCC(=O)NCc3ccco3)[nH]c2cc1C,/,/,/,-8,1,i,/,21
COc1ccc(CCNC(=O)C2CCN(S(=O)(=O)c3cc(OC)ccc3OC)CC2)cc1,11,-9,8,4,1,/,/,-14
Fc1ccccc1-c1nc2ccccc2[nH]1,-6,/,1,2,0,i,-42,11
Cc1nc2c(cnn2-c2ccccc2Cl)c(=O)n1-c1ccc(C(C)C)cc1,4,-11,4,3,-3,i,24,16
C=CCn1c(C)cc(-c2csc(N)n2)c1C,?,/,?,-7,15,i,14,-9
CCS(=O)(=O)N1CCN(C(=O)c2ccccc2)CC1,-7,-27,-1,5,6,i,-1,3
COc1ccc(-c2cc(=O)c3cc(O)ccc3o2)cc1,5,-30,2,1,-3,i,/,-4
CCOC(=O)c1ccc(CSc2nnc(C)n2N)o1,-8,-5,1,2,0,i,/,-1
COc1ccc(N=C(C)c2sc3ccccc3c2O)cc1,4,-16,-4,-24,3,i,-208,18
COc1ccc(S(=O)(=O)N(C)CC(=O)Nc2ccccc2C(F)(F)F)cc1Cl,-6,-6,0,-3,-3,i,0,-7
c1cc2c3c(cccc3c1)C(N1CCCCC1)=N2,?,-14,?,-2,3,/,/,-2
Cc1cccc(C(CC(=O)O)n2cccc2)c1 (centres undefined),4,-7,10,19,9,i,-25,-20
O=C(Nc1cccc(-c2cnc3ccccc3n2)c1)c1ccccc1,-7,-16,-6,7,-1,i,-35,-6
O=c1c2ccccc2ncn1CCOCCOc1cccc(Br)c1,5,/,35,9,9,i,/,6
O=C(c1ccccc1[N+](=O)[O-])N1CC2C3C=CC(C3)C2C1 (centres undefined),10,1,2,-1,-1,i,-10,-12
O=C1CC(=Nc2ccc([N+](=O)[O-])cc2)NN1c1c(Cl)cc(Cl)cc1Cl,/,-11,/,2,1,/,7,/
O=C(NCc1ccco1)/C(=C\C=C\c1ccccc1)NC(=O)c1ccccc1Br,-5,1,5,1,-3,i,-20,-9
COc1cccc(CNC(=O)CN2C(=O)COc3ccc(S(=O)(=O)N4CCCCC4)cc32)c1,/,7,/,3,1,i,8,1
Cc1ccc(C)c(SCC(=O)OC/C(O)=C(\C#N)c2nc3ccccc3[nH]2)c1,48,/,30,/,/,i,4,/
COc1ccc(C2CC(c3cccc([N+](=O)[O-])c3)=NN2/C(C)=C/C(C)=O)cc1 (centres undefined),/,-1,/,-3,0,/,-11,/
CCC(=O)Nc1cccc(-c2cnc3ccccc3n2)c1,6,-4,7,2,4,i,-98,-16
COC(=O)C1C(=O)C2=C(CC1C)Nc1ccccc1NC2c1ccc(C)s1 (centres undefined),-7,/,-4,-5,4,i,-5,6
Cc1cc([N+](=O)[O-])nn1CCCC(=O)Nc1cc(Oc2ccccc2)cc([N+](=O)[O-])c1,-14,/,-15,-5,-15,i,13,2
CC1Cc2ccccc2N1C(=O)c1cnsn1 (centres undefined),-13,-6,-4,6,9,i,-39,-8
Cc1ccc(S(=O)(=O)N2CCC(C(=O)NCCCn3ccnc3)CC2)cc1,-7,-6,2,-6,1,i,-9,37
Brc1ccc(-c2noc(CCc3ccccc3)n2)cc1,/,-11,/,-3,-1,/,-26,-4
CC1(C)CC(C)(O)P(=O)(c2ccccc2)O1 (centres undefined),-8,-30,6,1,-1,/,-85,-9
O=C(NNC(=O)C12CC3CC(CC(Cl)(C3)C1)C2)c1csc(N2CCOCC2)n1,10,-33,8,-3,1,i,13,-5
COc1ccc(N2CCN(C(=O)COC(=O)c3c(-c4ccccc4)noc3C)CC2)cc1,/,-4,/,2,-1,/,16,-5
CC(C)C[C@H](NC(=O)NC(C)C)C(=O)O,-10,-1,-2,1,6,i,-34,-16
Cc1nc2ccccn2c(=O)c1NC(=O)COc1ccccc1,/,-18,/,-4,1,/,0,/
COCCNC(=O)CCC1CCN(Cc2ccc(-c3ccccc3)cc2)CC1,-10,5,3,5,5,i,-3,-7
CCC1(C)Cc2c(C#N)c(N)n(N)c(=S)c2CO1 (centres undefined),28,-34,-2,-20,-3,i,-2,-16
O=C(NC1CC2CCCC(C1)N2C(=O)Nc1cccc(F)c1)C1CC1 (centres undefined),-8,-10,-7,2,7,i,9,-18
Cc1cc(C)c2c(=O)cc(C(F)(F)F)oc2n1,-4,-9,-1,-2,1,i,7,3
CC(C)(C)OC(=O)N1Cc2ccccc2C[C@H]1C(=O)NCC(=O)NC1CCCC1,-7,-26,10,0,6,i,3,-5
COCCCn1c2nc3ccccc3nc2c2c(=O)n(Cc3cccs3)cnc21,-8,/,-5,/,/,i,/,3
COCCCN(C(=O)c1ccc2ccccc2n1)c1c(N)n(Cc2ccccc2)c(=O)[nH]c1=O,/,-4,/,-6,4,/,-30,-3
COc1ccccc1/C=C/C(=O)OCC(=O)Nc1ccc2c(c1)OCO2,/,-22,/,0,3,/,/,-24
C/C(=N\Nc1nc(C)c(C)s1)c1ccc([N+](=O)[O-])cc1,-1,/,0,-3,3,i,-56,3
S=C(NCc1ccncc1)Nc1cccc(Cl)c1,1,/,-5,-1,-2,i,/,-7
Cc1ccsc1C(=O)OCC(=O)N1C(C)CCCC1C (centres undefined),/,-13,/,-2,-2,/,/,-16
Nc1ccn([C@@H]2O[C@H](C(=O)NCCc3ccc(F)cc3)[C@@H](O)[C@H]2O)c(=O)n1,/,-5,/,2,4,/,16,/
O=C(NC1CCCCC1)c1ccc2snnc2c1,-6,-11,1,0,0,/,-19,-14
CCCCOc1cccc(C2/C(=C(/O)c3ccc4c(c3)CC(C)O4)C(=O)C(=O)N2CCN2CCOCC2)c1 (centres undefined),-8,-16,8,-2,1,i,-9,-9
O=C(NCc1cccs1)C1CCN(S(=O)(=O)c2cccc([N+](=O)[O-])c2)CC1,-11,-17,-1,-2,0,i,-2,/
C=CCNC(=O)CCCCCNS(=O)(=O)c1ccc(OC)cc1,-7,0,-7,-5,3,i,2,-11
CCOc1ccc(Oc2ccccc2NS(=O)(=O)c2ccc(CCC(=O)O)cc2)cc1,/,7,/,4,-17,/,/,-7
CCN(C(=O)c1cc2c(=O)[nH]c3ccc(C)cc3c2s1)c1cccc(C)c1,5,-12,19,1,-3,i,-15,31
CC(=O)Nc1ccc(OCC(=O)N(CC(C)C)C2CCS(=O)(=O)C2)cc1 (centres undefined),-5,/,5,3,6,i,0,-8
CCc1cccc(NC(=O)c2ccc(NS(=O)(=O)c3c(C)noc3C)cc2)c1,-14,-9,-1,5,0,i,/,28
Cc1ccc(CNC(=O)c2ccc3nc4[nH]c5ccccc5c4nc3c2)cc1,-2,/,-3,/,/,i,-52,/
CC1(c2ccccc2Cl)NC(=O)N(CC(=O)Nc2cccnc2Cl)C1=O (centres undefined),/,8,/,2,4,i,/,-5

# Entries of single compounds, looked up by structure. Screens in order: eIF4H inh	Yeast UUG start	PABP FP inh	MT1-MMP act inh	MT1-MMP act inh RFP	Rce1 inh	HIV Env fusion	CSC inhib
# Record of CCc1cccc(NC(=O)c2ccc(NS(=O)(=O)c3c(C)noc3C)cc2)c1 = -14	-9	-1	5	0	i	/	28
# Record of O=C(NCc1cccs1)C1CCN(S(=O)(=O)c2cccc([N+](=O)[O-])c2)CC1 = -11	-17	-1	-2	0	i	-2	/

# Next section.
SMILES,eIF4H inh,Yeast UUG start,PABP FP inh,MT1-MMP act inh,MT1-MMP act inh RFP,Rce1 inh,HIV Env fusion,CSC inhib
COCCCNC(=O)c1ccc2sc([C@@H]3O[C@H](CO)[C@H](O)[C@H](O)[C@H]3O)nc2c1,/,-9,/,2,1,/,-7,/
COc1ccc(NC(=O)c2cc(C)n(Cc3cccs3)c2C)cc1,-4,-29,10,2,-3,i,-124,4
CC(C)Oc1ccc(CC(=O)NNC(=S)Nc2ccc(Br)cc2)cc1,10,-25,17,2,0,i,-12,-22
Cn1ccc(NC(=O)Nc2cccc([N+](=O)[O-])c2)n1,-6,-11,-4,3,0,i,-6,-7
Cc1ccc(S(=O)(=O)Nc2ccc3nc(C)sc3c2)cc1,4,/,-2,-10,-22,i,/,-13
COc1cccc(CC2(CO)CCN(S(=O)(=O)N(C)C)CC2)c1,-9,/,16,-3,-6,i,-6,-3
COc1ccc(-c2csc(N(CC3CCCO3)C(=O)c3cccs3)n2)cc1 (centres undefined),-2,4,-5,-2,2,/,61,0
Cc1ccc(NS(=O)(=O)c2ccc(OCC(=O)NCc3cccnc3)cc2)cc1,-3,-14,-9,1,5,i,/,28
Cc1nn(C)c(C)c1S(=O)(=O)N1CCCC(C(=O)NCC2COc3ccccc3O2)C1 (centres undefined),-1,0,-2,0,1,/,-10,0
Cc1ccccc1NC(=O)c1cc2c(C)nc3ccccc3c2o1,-9,0,4,-1,-3,i,1,-10
Cc1ccc(S(=O)(=O)Nc2cc(=O)[nH]c(SCc3ccc(Cl)cc3)n2)cc1,-2,-21,2,-5,-7,/,7,21
COc1cccc(C(O)c2ncc(-c3ccccc3OC)[nH]2)c1 (centres undefined),/,-20,/,3,3,/,5,/
c1ccc(C2=Nc3ccccc3OC2)cc1,2,-7,2,-3,0,i,13,-3
O=C(NC1CCCCCC1)C1CCN(C(=O)Cc2ccccc2)CC1,-3,-16,-2,1,5,i,/,8
Cc1ccc(CNC(=O)C2CCN(S(=O)(=O)N3CC(C)CC(C)C3)CC2)cc1 (centres undefined),/,-9,/,0,1,i,-6,-10
COc1cccc2[nH]c3c(=O)[nH]cnc3c12,-7,-12,17,4,2,i,31,-2
CCOC(=O)c1nn(-c2ccc(F)cc2)c(=O)c(C#N)c1C,-4,-7,3,/,/,i,-21,-18
COc1ccc(Cl)cc1S(=O)(=O)N(C)CC(=O)NCc1ccccn1,-2,-7,7,-1,2,i,11,-9
CC(C)Oc1c(Cl)cc(CNC(C)(C)CO)cc1Cl,-6,-9,0,-1,3,i,/,/
O=C(N[C@@H](Cc1ccccc1)C(=O)OCc1ccccc1)c1nc[nH]c1C(=O)NCc1ccccc1,12,-8,11,4,3,i,14,3
CCCNC(=O)COCc1cc(-c2ccc3c(c2)OCO3)on1,4,-10,5,-1,1,i,0,-3
CCOC(=O)c1c([N+](=O)[O-])c(C)[nH]c(=O)c1C#N,12,-26,11,0,3,i,-3,-5
Cc1cccc(C(=O)Nc2cccc(C(=O)N/N=C/c3ccncc3)c2)c1,-1,/,4,-2,0,i,-26,-5
CN(CCCCOc1ccc(F)cc1)Cc1ccccc1,3,20,17,2,5,i,19,/
Cc1ccc(NC(=S)NCc2cccnc2)cc1,-2,-15,2,-1,2,i,/,-3

# These rows are one share of the data; count on the stated rates, not on these rows.
